# Mtb hypoxia rep = inhibitors of hypoxia-regulated fluorescent reporter in Mycobacterium tuberculosis; M. tuberculosis hypoxia-regulated fluorescent reporter, fluorescence; fluorescence inhibition, % (no concentration beside the values); 300,000 tested, 0.1% active; AID 1159583;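 active = 35 to 45% if threefold the growth effect, above 45% if 1.5-fold the growth effect; inactive = the rest, general growth blockers included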;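 also: wells of about 50 µL received 100 nL stock; 0% = vehicle wells and 100% = reference inhibitor wells; whole bacteria with a GFP reporter of the hypoxia response; strong numbers were not always called active; many hits fall short of the cut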
# RN4220 kill = S. aureus RN4220 growth inhibition; OD600, 16 h; inhibition, % (no concentration beside the values); 330,000 tested, 0.33% active; AID 1259311;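 active = z-score of -3 or lower and OD600 up to 0.18 on both plates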;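 also: plate controls were untreated cells for no effect and reference antibiotic for full effect; stock transfer was 100 nL into about 80 µL; one replicate is shown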
# BJeLR lethal = kills HRASV12-expressing BJeLR cells. BJeLR (HRASV12) viability, CellTiter-Glo ATP luminescence, 48 h; reference of the scale not given here. AID 1554. inhibition, % (test concentration not listed). 300,000 tested, 0.17% active;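 active = replicate mean above 50%; inconclusive = above 50% but judged a plate artefact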;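 also: 50 nL library stock added to about 25 µL; numbers are from one replicate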
# Bead autofluor = compound fluorescence in toxin protease inhibitor counterscreen | AID 624483 | compound autofluorescence counterscreen, microsphere flow cytometry; hits give high values | fluorescence intensity (no concentration beside the values) | 360,000 tested, 3.1% active;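 active = at least 3 SD above the mean of all compounds, about 16000 in these data; inconclusive = too few beads counted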;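 also: 100 nL of 1 mM stock went into each well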
# PrP 5UTR inh = inhibition of PrP 5' UTR reporter expression; cell-based PrP 5' UTR mRNA reporter, plate reader; inhibition, % (no concentration beside the values); 340,000 tested, 0.35% active; AID 488862;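 active = every replicate at 50% or more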;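 also: 0 = median of the neutral control wells; tested in H4 reporter cells; numbers are from one replicate; inactives centre near -14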
# ugtP null kill = kills S. aureus RN4220 lacking UgtP. S. aureus RN4220 ugtP deletion, OD600 growth, 16 h; some inactives read as strong as hits. growth inhibition, % (no concentration beside the values). 330,000 tested, 0.54% active. AID 1259309;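 active = z-score under -3 and OD600 up to 0.15 on both plates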;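 also: plate controls were untreated wells for no effect and antibiotic for full effect; wells of about 80 µL received 100 nL stock; the first replicate is given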
# Mtb hypoxia rep growth = also measured in Mtb hypoxia rep; calls as there; growth inhibition, %; measured here: M. tuberculosis growth (absorbance);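 0% = vehicle and 100% = reference antibiotic; read after six days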
# Active calls of the source: *; ? = inconclusive; · = no result given.
# Assay codes: A = Mtb hypoxia rep; B = Mtb hypoxia rep growth; C = RN4220 kill; D = BJeLR lethal; E = Bead autofluor; F = PrP 5UTR inh; G = ugtP null kill
[1] CC(C)(C)C(=O)Nc1ccccc1C(=O)OCC(=O)c1ccc2c(c1)OCCO2
  A = 0	B = 1	C = 1.7	D = 4	E = 2494	F = -20	G = 11

[2] CCN(CC)c1ccc(N2C(=O)/C(=C/c3cccs3)SC2=S)cc1
  A = 9	B = 6	C = -1.1	D = -5	E = 3052	F = -30	G = -2

[3] CCc1ccc2c(c1)C1(C(=O)N2)N2CCCC2C(C(=O)c2ccc3ccccc3c2)C12C(=O)Nc1ccccc12 (stereo not given)
  A = -3	B = -3	C = -2.9	D = 5	E = 2265	F = -13	G = -15

[4] O=C1c2ccccc2OC2(C=Cc3ccccc3O2)N1Cc1ccccc1 (stereo not given)
  A = -1	B = 4	C = 20	D = 9	E = ?	F = -19	G = 46

[5] O=C(COc1ccc(Br)cc1)N1CCN(C2CCCC2)CC1
  A = ·	B = ·	C = -4.0	D = -6	E = 2181	F = -21	G = 20

[6] Cc1ccc(S(=O)(=O)N[C@H](C(=O)NCC2CCC(C(=O)O)CC2)C(C)C)cc1 (stereo not given in full)
  A = 6	B = 11	C = 4.3	D = 3	E = 3706	F = -9	G = 8

[7] CC1=C(C(=O)N2CCCC(N3CCN(c4ccccc4C)CC3)C2)OCCO1 (stereo not given)
  A = 5	B = 3	C = 4.3	D = 10	E = 5045	F = -9	G = 3

[8] CCOC(=O)c1c(C)n(C)c2ccc(OC(=O)c3ccc(N4C(=O)CCC4=O)cc3)cc12
  A = 5	B = 3	C = 2.7	D = 9	E = 10202	F = -11	G = -4

[9] Cn1cnnc1SCC(=O)n1c2ccccc2c2ccccc21
  A = ·	B = ·	C = -1.9	D = 8	E = 2802	F = -26	G = 11

[10] COc1ccc(CNC(=O)CC(C)=NNC(=O)c2ccccc2OC)cc1
  A = 4	B = -3	C = 2.2	D = ·	E = ·	F = ·	G = 10

[11] CC1(CCc2ccccc2)NC(=O)N(CC(=O)N2CC(=O)Nc3ccccc32)C1=O (stereo not given)
  A = 2	B = 0	C = -0.1	D = 3	E = 5605	F = -5	G = 1

[12] Cc1ccc(-n2[nH]c(C)c(C=Nc3ccc(C)cn3)c2=O)cc1
  A = 4	B = 11	C = 4.8	D = 4	E = 12377	F = -19	G = -5

[13] CN1CCN(c2ccc(NC(=O)c3ccc(Oc4ccccc4)cc3)cc2)CC1
  A = 4	B = 2	C = 0.1	D = -6	E = 2992	F = -24	G = 11

[14] Cc1c(CC(C)C)nc(N)c(C#N)c1-c1ccccc1
  A = 15	B = 15	C = -5.0	D = -3	E = 3154	F = -10	G = -5

[15] O=C(COc1ncnc2ccccc12)c1ccc2c(c1)OCCO2
  A = -5	B = -5	C = 4.4	D = 4	E = 2519	F = -60	G = -2

[16] CCn1c(SCC(=O)c2cc(C)n(CC3CCCO3)c2C)nc2ccccc21 (stereo not given)
  A = 16	B = 11	C = 0.3	D = -1	E = 3133	F = -18	G = 3

[17] NC(=O)CSc1nnc(COc2ccc3ccccc3c2)o1
  A = 5	B = 9	C = 3.0	D = 2	E = 4137	F = -12	G = 0

[18] OC(CCNCCc1c[nH]c2ccccc12)C(F)(F)Cl (stereo not given)
  A = 11	B = 4	C = 3.4	D = 5	E = 4416	F = -19	G = 4

[19] Cc1noc(C)c1COc1ccccc1C(=O)N1CCN(S(=O)(=O)c2ccccc2C#N)CC1
  A = 6	B = 0	C = 3.9	D = ·	E = 3030	F = -9	G = 0

[20] c1csc(C2Nc3cccc4cccc(c34)N2)c1
  A = ·	B = ·	C = -2.8	D = 13	E = 3544	F = -3	G = -5

[21] CCc1nn(CCCC(=O)N2CCC(C)CC2)c(=O)c2cc3occc3n12
  A = 5	B = 2	C = 2.0	D = 9	E = 6162	F = -13	G = 9

[22] CN(Cc1nc2ccccc2n1C)S(C)(=O)=O
  A = 5	B = 8	C = -1.2	D = -18	E = 11262	F = -24	G = -3

[23] O=C(c1ccc(Cl)cc1)C1CCN(C(=O)NC2CCCCC2)CC1
  A = -1	B = -2	C = 0.8	D = -9	E = 16027	F = -1	G = 10

[24] CC(C)(C)NC(=O)COC(=O)c1ccc(S(=O)(=O)N2CCCCCC2)cc1
  A = ·	B = ·	C = 2.1	D = -3	E = 3870	F = -10	G = 7

[25] CN(C)C(=S)NC(=O)C(c1ccccc1)c1ccccc1
  A = -1	B = 3	C = -1.5	D = 5	E = 3997	F = -7	G = 3

[26] COc1ccc([N+](=O)[O-])cc1NC(=O)c1cccnc1
  A = ·	B = ·	C = ·	D = -1	E = 4360	F = -42	G = ·

[27] CNC(=O)CCn1nc(-c2ccc(C)cc2)c2ccccc2c1=O
  A = 13	B = 9	C = 4.6	D = 3	E = 3511	F = -20	G = 19

[28] Cc1ccccc1NS(=O)(=O)c1ccc(N2CCCC2=O)cc1
  A = 10	B = 8	C = 8.8	D = 19	E = ?	F = -26	G = 3

[29] C/C(=N/NS(=O)(=O)c1ccc(C(C)C)cc1)c1ccncc1
  A = ·	B = ·	C = ·	D = 6	E = 6217	F = -7	G = ·

[30] CCOc1ccc(NC(=O)CC(NCc2ccccn2)C(=O)O)cc1 (stereo not given)
  A = 2	B = 13	C = -1.4	D = -2	E = 2478	F = -9	G = 5

[31] CC(OC(=O)n1ccnc1)C1O[C@@]2(C)CCCC1O2 (stereo not given in full)
  A = 7	B = 11	C = 2.2	D = ·	E = ·	F = ·	G = -1

[32] CCN1CCN(c2ccc(NC(=O)c3ccc(Br)o3)cc2)CC1
  A = 5	B = 8	C = -1.6	D = 3	E = 5283	F = -47	G = 0

[33] O=C(COC(=O)CNC(=O)c1ccc(Cl)c([N+](=O)[O-])c1)NCC1CCCO1 (stereo not given)
  A = 6	B = 4	C = 4.4	D = ·	E = 3809	F = -24	G = 10

[34] COCn1c(C(O)c2ccccc2)cc2ccccc21 (stereo not given)
  A = 7	B = 10	C = 7.2	D = 8	E = 4167	F = -23	G = -2

[35] Cn1cccc1C(=O)OCc1ccc(F)cc1
  A = 16	B = 7	C = 5.8	D = 1	E = 3136	F = -21	G = 5

[36] COc1cccc2c1C(=O)CC1C2CCC2CC(=O)CCC21C (stereo not given)
  A = 12	B = 4	C = 3.2	D = -1	E = 5886	F = -5	G = -2

[37] O=C(NCCOc1ccccc1)c1cccc(S(=O)(=O)NCc2ccccc2)c1
  A = 1	B = 6	C = -1.5	D = -10	E = 5918	F = -20	G = 10

[38] COc1ccc(CN(C)C(=O)COC(=O)c2ccc(-c3ccccc3)cc2)c(OC)c1OC
  A = 11	B = -8	C = 10	D = ·	E = 6375	F = -19	G = 12

[39] O=C1/C(=N\S(=O)(=O)c2cccs2)C([n+]2cccc(Cc3ccccc3)c2)=C([O-])c2ccccc21
  A = 2	B = 2	C = 16	D = -2	E = ·	F = -9	G = 0

[40] Cc1ccc2c(c1)CC1(CN2C)C(=O)OC2(CCCCC2)OC1=O
  A = 6	B = 12	C = 3.3	D = 7	E = 8708	F = -26	G = 2

[41] C=CCNC(=O)Nc1ccc(F)c(Cl)c1
  A = -12	B = 9	C = 1.1	D = -8	E = 2264	F = -20	G = 0

[42] CC(=O)c1c(C)[nH]c(C(=O)CSc2nc3ccccc3c(=O)n2CCCO)c1C
  A = -2	B = 7	C = 0.2	D = -8	E = 4028	F = -43	G = -17

[43] COc1cc(CCC(=O)OCC(N)=O)cc(OC)c1OC
  A = 9	B = 1	C = 14	D = -5	E = 3257	F = -18	G = -69

[44] CCN(CC)C(=O)c1ccc(NC(=O)COc2ccc([N+](=O)[O-])cc2Cl)cc1
  A = ·	B = ·	C = ·	D = -3	E = 2411	F = -14	G = ·

[45] Cc1ccc(NC(=S)Nc2ccc3cn[nH]c3c2)c(C)c1
  A = 6	B = 13	C = -2.1	D = 13	E = 4899	F = -4	G = 11

[46] CCC(CC)C(=O)NC12CC3CC(CC(C3)C1)C2
  A = ·	B = ·	C = 1.6	D = -3	E = 4887	F = -1	G = 8

[47] CCNC(=S)N(CCc1c(C)[nH]c2ccc(OC)cc12)Cc1cccnc1
  A = -5	B = 0	C = 1.5	D = -7	E = 4129	F = -10	G = 1

[48] O=C1c2ccccc2-c2onc3ccc(NCc4ccco4)c1c23
  A = 3	B = -15	C = -5.2	D = 17	E = 3716	F = -10	G = -23

[49] COc1cccc(CNS(=O)(=O)c2cc3c(cc2C)n(C)c(=O)c(=O)n3C)c1
  A = ·	B = ·	C = 1.6	D = 5	E = 6152	F = -44	G = 4

[50] CC(c1ccccc1)C(CC(=O)O)C(=O)NC1CCCCC1 (stereo not given)
  A = ·	B = ·	C = 1.1	D = 4	E = 6269	F = -14	G = 4

# (next part)
# Assay codes: A = Mtb hypoxia rep; B = Mtb hypoxia rep growth; C = RN4220 kill; D = BJeLR lethal; E = Bead autofluor; F = PrP 5UTR inh; G = ugtP null kill
[51] Cn1c(CSc2nc3ccccc3s2)nnc1SCC(=O)NCCN1CCOCC1
  A = -1	B = 1	C = 4.3	D = -5	E = 5534	F = -13	G = 1

[52] Cc1nc(NC(=O)CSc2ccc(-c3nc4ccccc4[nH]3)cn2)sc1C
  A = 7	B = -1	C = 8.5	D = 1	E = 2467	F = -99	G = -3

[53] CN(C)C(CNC(=O)c1ccc([N+](=O)[O-])cc1Cl)c1ccco1 (stereo not given)
  A = 0	B = 3	C = 3.5	D = 2	E = 5185	F = -23	G = 4

[54] COc1ccc(N2CCN(C3CCCN(C(=O)c4cccc(C)n4)C3)CC2)cc1 (stereo not given)
  A = -13	B = 3	C = -5.0	D = 3	E = 4404	F = -10	G = -8

[55] O=C(COc1ccc(F)cc1)NNC(=O)Cn1ccc(C(F)(F)F)n1
  A = -4	B = 15	C = -0.8	D = ·	E = 8593	F = 4	G = -1

[56] Oc1csc(Cc2nc(-c3ccc(Br)cc3)cs2)n1
  A = 9	B = 3	C = -0.7	D = -10	E = 2205	F = -67	G = -13

[57] CS(=O)(=O)c1ccc2nc(NC(=O)Nc3cccc(Cl)c3)sc2c1
  A = 3	B = 5	C = -6.1	D = 18	E = 7745	F = -69	G = -23

[58] CC1CCC(NC(=O)COC(=O)c2ccc3ncsc3c2)CC1 (stereo not given)
  A = 8	B = 8	C = 3.8	D = ·	E = 3270	F = -2	G = 4

[59] COC(=O)C1C(=O)c2c([nH]c(C(=O)OCCOC(C)C)c2C)CC1C (stereo not given)
  A = ·	B = ·	C = 1.0	D = 0	E = ·	F = ·	G = 1

[60] O=C(O)c1cccc(Nc2nc(N3CCOCC3)nc(N3CCOCC3)n2)c1
  A = 6	B = 0	C = -0.1	D = 8	E = 22856*	F = -32	G = 3

# Assay outcomes as filed in PubChem.
